# CSC inhib: blocks cancer stem cells; 300,000 tested, 1.1% active; AID 2717; cancer stem cell-like cells viability, luminescence; inhibition, % at 7.5 µM;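 active = mean at 75% or more and at least half the replicates too; tested in HMLE shEcad cells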;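 also: 0% = median of negative and 100% = median of positive control wells; the first replicate is given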
# Rce1 inhib: blocks yeast Ras-converting enzyme | Q03530 | yeast membranes, quenched prenylated peptide cleavage fluorescence | calls only | 290,000 tested, 0.27% active;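 active = fall in fluorescence gain of 50% or more versus controls, with final raw signal at or below 3038400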;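 also: plate controls were neutral control wells for no effect and wells lacking membranes for full effect; tested at 10 µM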
# Target sequence (Q03530 whole entry, looked up): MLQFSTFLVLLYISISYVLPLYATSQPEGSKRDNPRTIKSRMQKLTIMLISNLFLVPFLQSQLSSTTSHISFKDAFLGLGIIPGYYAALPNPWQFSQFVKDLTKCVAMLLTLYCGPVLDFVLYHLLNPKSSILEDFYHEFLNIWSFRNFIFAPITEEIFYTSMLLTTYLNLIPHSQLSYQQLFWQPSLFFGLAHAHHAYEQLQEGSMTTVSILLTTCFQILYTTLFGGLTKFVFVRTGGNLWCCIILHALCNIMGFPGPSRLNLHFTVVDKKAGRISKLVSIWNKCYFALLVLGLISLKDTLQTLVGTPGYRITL
# PABP FP inh: PABP-poly(A) binding inhibition | P11940 | PABP-poly(A) RNA binding, fluorescence polarization | inhibition, % at 35 µM | 290,000 tested, 1% active | AID 2014;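 active = 50% or more with normal probe brightness, or confirmed in later tests; about a fifth of its hits are not listed in these tables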;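 also: calls also rest on retests at 20 µM and on dose response follow-up; controls were probe without protein and protein plus probe with vehicle; some compounds called inactive have numbers as strong as hits; many hits fall short of the cut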
# Target sequence (P11940 whole entry, looked up): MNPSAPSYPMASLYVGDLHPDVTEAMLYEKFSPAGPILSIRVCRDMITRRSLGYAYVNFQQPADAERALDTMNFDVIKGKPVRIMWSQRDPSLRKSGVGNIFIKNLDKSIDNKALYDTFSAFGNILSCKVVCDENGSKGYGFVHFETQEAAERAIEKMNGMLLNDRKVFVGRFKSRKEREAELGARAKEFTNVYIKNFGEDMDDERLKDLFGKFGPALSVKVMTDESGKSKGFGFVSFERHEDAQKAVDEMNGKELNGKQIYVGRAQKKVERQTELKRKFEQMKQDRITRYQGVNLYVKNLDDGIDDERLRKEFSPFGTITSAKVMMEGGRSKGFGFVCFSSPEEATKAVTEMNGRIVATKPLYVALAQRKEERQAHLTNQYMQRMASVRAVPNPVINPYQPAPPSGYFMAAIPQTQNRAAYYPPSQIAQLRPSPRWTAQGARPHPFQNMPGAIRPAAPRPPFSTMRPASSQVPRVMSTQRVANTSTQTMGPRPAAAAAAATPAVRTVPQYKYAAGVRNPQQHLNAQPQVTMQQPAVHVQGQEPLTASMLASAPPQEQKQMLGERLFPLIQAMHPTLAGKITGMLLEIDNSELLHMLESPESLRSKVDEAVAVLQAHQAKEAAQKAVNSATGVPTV
# MT1-MMP act inh: inhibitors of human MT1-MMP activation; HT1080 RFP-PRO-GFP cells, GFP/RFP ratio fluorescence, overnight; percent of plate control window, DMSO zero; GFP/RFP ratio change, % at 20 µM; 360,000 tested, 0.061% active; AID 651647;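 active = GFP/RFP ratio change of at least 30% with cell ATP level not reduced by more than half and red fluorescence within 50% of control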; also: strong numbers were not always called active
#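 Assay system: HT1080 RFP-PRO-GFP cells | Dosing: 20 µM single dose, 1% DMSO | Incubation: Cells overnight before dosing, compound overnight, 37 °C, 5% CO2 | Evaluation: GFP/RFP fluorescence ratio | Control set: DMSO-only wells and HT1080 RFP-L50D-GFP cell wells as references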
# eIF4H inh: inhibitors of RNA binding by human eIF4H; 290,000 tested, 0.94% active; AID 2012; Q15056; inhibition, % at 35 µM; eIF4H fluorescence polarization binding assay;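 active = 50% or more with normal probe brightness, or confirmed in later tests; about a fifth of its hits are not listed in these tables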;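 also: calls also rest on retests at 20 µM and on dose response follow-up; 0% = protein and probe with vehicle and 100% = probe without protein; strong numbers were not always called active; many hits fall short of the cut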
# HIV Env fusion: inhibitors of HIV Env-mediated cell fusion. 360,000 tested, 1.1% active. inhibition, % at 12.3 µM. HeLa-JRFL Env/CEM21 cell fusion, luciferase;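 active = mean replicate inhibition score of at least 50 and every replicate individually at or above 50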;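 also: 0% = plate neutral controls and 100% = maraviroc near 300 nM; one replicate is shown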
# UUG fidelity: yeast start codon fidelity modulation | S. cerevisiae UUG-firefly luciferase reporter, luminescence/redox ratio | activity score, % at 18.7 µM | 350,000 tested, 0.13% active | AID 602363;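 active = replicate mean at a twofold rise or more, about +100% in these data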;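 also: firefly luciferase made from a UUG start codon reports start codon fidelity; reporter light over untreated wells divided by growth signal over untreated wells; some hits fall short of that in this replicate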
# eIF4H inh retest: recorded beside eIF4H inh, whose call it bears; inhibition, %; compound at 20 µM; confirmation average;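 mean of two retest wells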
# PABP FP inh retest: also measured in PABP FP inh; calls as there; inhibition, %; compound at 20 µM; confirmation repeats;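 mean of two retest wells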
# MT1-MMP act inh RFP: recorded beside MT1-MMP act inh, whose call it bears; RFP signal change, %; measured here: RFP expression control read;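 0 = vehicle wells; hits needed this value within 50% of zero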
# * hit, by the source's call; i = inactive; . = not tested or not shown; & = joins results of further samples. A portion of the library; the hit share may differ from the screen's.
SMILES,CSC inhib,Rce1 inhib,PABP FP inh,MT1-MMP act inh,MT1-MMP act inh RFP,eIF4H inh,HIV Env fusion,UUG fidelity,others
N#CC1=C(N)n2c(s/c(=C\c3cccs3)c2=O)=C(C#N)C1c1cccs1 (stereo not given),9,i,-2,-102,10,60,-15,.,eIF4H inh retest=-5;PABP FP inh retest=4
Nc1nc(CCl)nc(N(c2ccccc2)c2ccccc2)n1,3,i,4,-14,-19,-1,10,-15,
O=C(CSc1cccc[n+]1[O-])Nc1ccc(Br)cc1Br,-6,.,.,7,1,.,-6,3,
CCn1c(SCC(=O)N2CCOCC2)nc(O)cc1=O,-13,i,4,0,3,-13,5,-3,
C=CCn1c(SCC(=O)NC2CCCCC2)nnc1-c1sc(N)nc1C,-14,i,-2,3,0,7,.,-28,
Cc1ccc(N/N=C(\C#N)C(=N)N2CCCCC2)cc1,-3,i,8,4,1,-1,-48,.,
C(=N\N1CCN(c2ccccn2)CC1)/c1ccccn1,-12,i,-2,1,-1,-10,-16,.,
S=C(Nc1cccc(Cl)c1)N1CCN(Cc2ccccc2)CC1,-17,i,-3,4,9,9,0,-22,
COc1cc(N/C(N)=N/c2nc(C)cc(C)n2)cc(OC)c1,-2,.,-1,-6,-4,-2,-2,-17,
Cc1ccc(-c2ccc(/C=N/NC(=O)c3ccccc3O)o2)cc1,10,i,-1,.,.,16,.,.,
Cc1ccc2nc(CCc3ccc(N)cc3)[nH]c2c1,8,i,-3,-1,1,-5,-9,-17,
CCO[C@@H]1OC(C(=O)NCc2ccccc2)=C[C@H](C)[C@H]1CCCO,-10,i,-4,0,4,-2,19,-4,
CCC(C(=O)Nc1cc(C)nn1-c1nc(C)cc(C)n1)c1ccccc1 (stereo not given),-16,i,-16,-3,-4,-6,-83,-28,
Cc1cccc(C2CC(c3ccccc3)Nc3ncnn32)c1 (stereo not given),-32,i,14,1,2,-2,22,-20,
COc1ccc(C(C(=O)NC2CCCC2)N(C(=O)c2snc(-c3ccc(F)cc3)c2N)c2ccccc2)cc1 (stereo not given),10,i,-1,8,5,-4,-12,-5,
CCOc1ccc(N(C)S(=O)(=O)c2c[nH]c(C(=O)OC)c2)cc1,-10,i,-6,1,-2,2,-5,-2,
O=C(Cn1nnc(-c2ccccc2NC(=O)C2CC2)n1)NC1CCCCC1,3,i,-8,1,-1,-2,0,-4,
CC(=O)C1C(c2cccc(Oc3ccccc3)c2)NC(=O)NC1(O)C(F)(F)F (stereo not given),-4,i,-1,0,1,0,.,-1,
CCN(CC)CCNC(=O)c1c(C)n(-c2ccccc2)c2cc(Br)c(OC)cc12,6,i,-13,-7,-8,-15,-31,-5,
COc1ccc(C(=O)C2CCCN(Cc3ccc4nonc4c3)C2)cc1OC (stereo not given),10,i,-1,-8,-8,-9,7,-34,
CC(OC(=O)c1cc2c(ccc3ccccc32)oc1=O)c1nc2ccccc2s1 (stereo not given),0,i,-22,1,0,-5,19,2,
S=C(NCc1ccncc1)Nc1ccc(Br)cc1Cl,-4,i,-7,1,-13,0,-10,-24,
Nc1nc2ccc(OC(F)(F)F)cc2s1,-20&-2,i,12&12,2,4,5&-2,-41,-1,
O=C(Nc1cccc(F)c1)NC1CC2CCCC(C1)N2C1CC1 (stereo not given),-4,i,-3,0,3,-10,-39,-10,
Nc1c(C(=O)N2CCCCC2)sc(=S)n1-c1ccccc1,-11,i,10,-1,-1,-3,1,7,

# Arranged by SMILES length (high to low): some entries from above.
SMILES,CSC inhib,Rce1 inhib,PABP FP inh,MT1-MMP act inh,MT1-MMP act inh RFP,eIF4H inh,HIV Env fusion,UUG fidelity,others
CC(=O)C1C(c2cccc(Oc3ccccc3)c2)NC(=O)NC1(O)C(F)(F)F (stereo not given),-4,i,-1,0,1,0,.,-1,
COc1ccc(C(=O)C2CCCN(Cc3ccc4nonc4c3)C2)cc1OC (stereo not given),10,i,-1,-8,-8,-9,7,-34,
C(=N\N1CCN(c2ccccn2)CC1)/c1ccccn1,-12,i,-2,1,-1,-10,-16,.,

# (next part)
SMILES,CSC inhib,Rce1 inhib,PABP FP inh,MT1-MMP act inh,MT1-MMP act inh RFP,eIF4H inh,HIV Env fusion,UUG fidelity,others
COc1ccc(OC)c(NC(=O)C2CCCN(S(=O)(=O)c3cccc4nsnc34)C2)c1 (stereo not given),15,i,0,2,-2,0,-12,-4,
Cc1cc2n(c1)CCn1c(C)ccc1-2,-18,i,122,.,.,122,.,.,eIF4H inh retest=36;PABP FP inh retest=42
C/C=C(/C)C(=O)Nc1cccc(C2=NOC3(C2)C[C@@H](C(N)=O)N(C(=O)CC)C3)c1 (stereo not given in full),-19,i,18,2,4,8,0,-13,
Cc1nnc(NC(=O)CSc2nnc(CNC(=O)c3ccccc3)o2)s1,-4,i,-6,-2,-6,22,.,-7,
COc1ccc(C2=NS(=O)(=O)N(C)C(C(=O)N3CCC(C)CC3)=C2)cc1,-9,i,0,5,-8,-6,.,10,
COc1ccc2nc(C)cc(SCC(=O)N/N=C/c3ccccc3)c2c1,4,i,4,-1,-4,8,8,-7,
O=c1cc(N2CCCCC2)c(-c2ccccc2)nn1Cc1ccc(F)cc1,40,i,-9,-3,-8,-5,26,.,
COc1cccc2cc(C(=O)CS(=O)(=O)c3ccc(C)cc3)c(=O)oc12,0,i,14,1,4,2,.,-11,
CCCC1C(=O)Nc2ccccc2N1C(=O)c1cccc(C)c1 (stereo not given),-4,i,-9,-2,-2,-5,52,4,
Cc1cccc(NC(=O)C23CCC(C)(C2Br)C3(C)C)c1 (stereo not given),48,i,0,-4,-5,-12,17,6,
COC(=O)c1scc(C)c1NC(=O)c1ccccc1F,-2,i,5,-6,5,-8,12,-10,
NCCSC1CC(=O)N(c2ccc(Cl)c(Cl)c2)C1=O (stereo not given),-14,i,-11,1,6,7,11,-15,
COc1cc(C(=O)Nc2ccc(Nc3ccccc3)cc2)cc(OC)c1OC,16,i,-3,9,4,-12,-14,-12,
CCN(CC(=O)NCc1cccs1)C(=O)c1ccc(OC)c(S(=O)(=O)N2CCOCC2)c1,-8,i,.,-3,5,.,17,.,
CC(=O)C[C@H](O)CC(=O)[C@H]1OC(=O)CCCCCCc2ccccc21,.,.,.,0,4,.,-153,-15,
Cc1ccc(-c2c(C(=O)N/N=C/c3ccncc3)nnn2-c2nonc2N)cc1,3,i,.,.,.,.,2,-6,
CNC(=O)C12CCC(C)(c3nc4cc(C)c(C)cc4nc31)C2(C)C (stereo not given),1,.,4,-7,3,-9,28,-3,
CCc1ccc(NC(=O)CN(N=Nc2nonc2C)c2nonc2C)cc1,16,i,6,2,6,-2,-1,.,
CC(C)N1CCc2c(sc(NC(=O)CCc3ccccc3)c2C(N)=O)C1,1,i,1,-2,7,2,-6,.,
O=C(C[n+]1ccccc1)N/N=C/c1ccc(C(=O)O)cc1,-11,.,.,0,6,.,.,-3,
Fc1ccc(-c2ccc(CNCc3ccccn3)o2)cc1,-12,i,11,0,1,4,-22,-27,
COc1ccccc1NS(=O)(=O)c1ccc(Cl)cc1,-1,i,-2,5,3,3,.,-3,
Cc1nc(C(C)(C)O)n(-c2ccccc2)n1,7,i,-7,-2,8,0,.,-5,
COc1cc(CC(=O)OCC(=O)Nc2cc([N+](=O)[O-])ccc2Cl)cc(OC)c1OC,-16,i,-4,-4,-4,-1,12,5,
O=C(CN1CCCCCC1)Nc1ccccc1[N+](=O)[O-],5,.,10,-2,-1,4,8,5,

# A run of entries from the list above, for reference:
SMILES,CSC inhib,Rce1 inhib,PABP FP inh,MT1-MMP act inh,MT1-MMP act inh RFP,eIF4H inh,HIV Env fusion,UUG fidelity,others
COc1ccc(OC)c(NC(=O)C2CCCN(S(=O)(=O)c3cccc4nsnc34)C2)c1 (stereo not given),15,i,0,2,-2,0,-12,-4,
Cc1cc2n(c1)CCn1c(C)ccc1-2,-18,i,122,.,.,122,.,.,eIF4H inh retest=36;PABP FP inh retest=42

# Next structures
SMILES,CSC inhib,Rce1 inhib,PABP FP inh,MT1-MMP act inh,MT1-MMP act inh RFP,eIF4H inh,HIV Env fusion,UUG fidelity,others
CCCC(C(=O)Nc1ccc(S(=O)(=O)Nc2ncccn2)cc1)c1ccccc1 (stereo not given),-9,i,-3,-2,4,-1,3,-7,
COc1ccccc1NC(=O)c1ccc(NC(=O)CN2CCN(C(=O)c3ccco3)CC2)cc1,-1,i,6,2,-1,-3,15,.,
COc1ccc(Cn2c(N)c(C#N)c3nc4ccccc4nc32)cc1OC,0,.,4,-36,-6,25,-28,-17,
COc1ccccc1Nc1nc(N)nc(CSc2nccc(C)n2)n1,2,i,10,-1,1,-5,-53,-16,
COC(=O)c1cscc1S(=O)(=O)Cc1ccccc1,-20,i,-10,2,-1,-10,1,-1,
CC(C)N1CC(COc2ccc(Br)cc2)OC1=O (stereo not given),-5,i,2,-2,-2,-11,-10,-23,
Cc1cc(C)cc(NC(=O)CCn2ccnc2)c1,-3,i,4,5,4,5,-5,-25,
CCNC(=O)C1(C)CCN(C(=O)C(c2ccccc2)c2ccccc2)C1 (stereo not given),.,.,.,3,4,.,-9,-14,
CN1C(=O)C(C)(C)c2cc(S(=O)(=O)NCc3ccc(C(=O)NCc4ccco4)cc3)ccc21,-2,i,-5,5,6,-11,2,-19,
Brc1cccc(CNc2nc3ccccc3n2CCN2CCOCC2)c1,4,i,2,2,1,3,11,.,
COC(=O)[C@@]1(C)[C@H]2C(=O)N(Cc3ccccc3)C(=O)[C@H]2[C@H]2CN=C(SC)N21,.,.,.,2,6,.,28,-3,
CSc1ccccc1NC(=O)COC(=O)Cc1ccsc1,1,.,.,0,2,.,.,-7,
CC1CCN(C(=O)/C=C/c2ccc(C(C)(C)C)cc2)CC1,33,i,-10,0,1,-1,-12,-8,
COc1ccccc1CNC(=O)c1c(-c2ccccc2)nn(-c2ccccc2)c1C,3,.,-18,-21,-7,-2,-79,-8,
CCOC(=O)/C(=N\Nc1ccc(Cl)cc1)c1csc(Nc2ccccc2)n1,-7,i,12,4,4,-11,-47,-18,
Cc1nnc(SCC(=O)Nc2ccc(Cl)cn2)[nH]c1=O,-10,i,-2,1,4,2,.,-10,
O=C(OCCN=C1NS(=O)(=O)c2ccccc21)c1cccnc1,-3,i,15,0,0,-5,.,0,
COc1ccc(-c2csc(C(C)(O)c3cccc(F)c3)n2)cc1OC (stereo not given),.,.,.,2,-5,.,27,-12,
O=C(COc1ccc(F)cc1)N(Cc1cccc(Br)c1)C1CCS(=O)(=O)C1 (stereo not given),-3,i,-1,-6,-5,-12,27,-4,
CCn1c(SCC(=O)Nc2cccc(O)c2)nc2c1c(=O)n(C)c(=O)n2C,-3,i,5,0,5,-3,5,-13,
COc1ccc(C2CC(c3ccc(C)cc3)=NN2C(=O)c2ccccc2)cc1 (stereo not given),27,i,-11,-2,-5,-7,15,-8,
O=C(c1cccc(Br)c1)c1conc1C(=O)c1ccco1,.,i,7,2,-1,-10,1,.,
CCC(=O)NCCCOc1ccccc1,12,i,-1,-2,1,-3,.,-12,
Cn1ccc(C(=O)N/N=C/c2ccccc2[N+](=O)[O-])n1,-16,i,0,-1,3,-6,-2,.,
CCOC(=O)c1ccc(NNC(C)=O)c([N+](=O)[O-])c1,0,i,-4,0,0,-5,-1,-21,
Cc1cccc(C)c1NC(=O)Cn1nc(-c2ccccc2)nc1-c1ccccc1,1,i,2,-2,1,-8,0,-16,
c1ccc(CN2CCN(CCOCCOc3cccc4ccccc34)CC2)cc1,25,i,-5,3,-6,15,12,.,
Cc1csc2ncc(C(=O)NC(C)c3ccccc3)c(=O)n12 (stereo not given),-2,i,-13,4,-4,4,-15,3,
Cc1ccc(N2C(=O)C3NN=C(C(=O)OCc4ccccc4)C3C2=O)cc1 (stereo not given),-3,i,-4,-12,-11,7,18,.,
CCCNC(=O)CCn1nc(-c2ccccc2)c2ccccc2c1=O,-10,i,-11,0,-1,-4,.,-32,
